Bioassay records deposited in PubChem BioAssay by National Center for Advancing Translational Sciences (NCATS).
HPGD inh – qHTS Assay for Inhibitors of HPGD (15-Hydroxyprostaglandin Dehydrogenase). 15-hydroxyprostaglandin dehydrogenase [NAD(+)] (Homo sapiens), P15428. purified HPGD, NADH fluorescence kinetic, PGE2 substrate. Potency, µM, for inactives: top-dose activity change, negative = inhibition, actives largely listed as inhibitors. 4.3% of 150,000 active. AID 894, 2007; active = well fitted inhibition curve with a large enough effect (not every such curve was filed as active); inconclusive = small, poorly fitted or top-dose-only effect, or another doubt; inactive = no such curve, though single readings can be large or run the other way;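 note: top concentration of the series not given in the record; plate controls included wells without enzyme; inactives centre near -10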
Target sequence (P15428 whole entry, looked up): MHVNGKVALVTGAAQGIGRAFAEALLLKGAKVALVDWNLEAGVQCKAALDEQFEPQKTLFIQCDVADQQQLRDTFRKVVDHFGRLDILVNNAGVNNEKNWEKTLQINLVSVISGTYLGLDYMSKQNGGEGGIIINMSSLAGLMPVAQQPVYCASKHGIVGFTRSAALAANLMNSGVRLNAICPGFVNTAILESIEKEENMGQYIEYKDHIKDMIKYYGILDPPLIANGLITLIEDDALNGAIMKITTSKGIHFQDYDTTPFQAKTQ
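20 nM HPGD preincubated 15 min at room temperature with compound in 50 mM Tris-HCl pH 8, 0.01% Tween 20. Started with 1 mM NAD+ and 30 uM prostaglandin E2; NADH fluorescence (360/450 nm) read 5 times over 30-s intervals, last minus first.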
Starred values were filed as active, the others as inactive; ? = inconclusive; & = joins results of further samples. % is set by controls: 0 for no effect and ±100 for the full control effect; potency is the fitted concentration of half-maximal effect. Some of the compounds tested; rates above refer to the full screens.

Molecule | HPGD inh
Cc1onc(-c2ccccc2)c1C(=O)Nc1ccc(N2CCOCC2)cc1 | -10%
CCc1nc(N2CCCC2)c(C#N)c2c1CCCC2 | ?
Cc1[nH]nc2cn[nH]c12 | -16%
O=C(Nc1nc(-c2cc3ccccc3oc2=O)cs1)c1ccco1 | ?
CCOC(=O)c1nn(-c2ccc(F)cc2)c(-c2ccccc2)c1C(=O)c1ccccc1 | -23%
COc1ccccc1/C=N/NC(=O)CCn1cnc2ccccc21 | -17%
CN(Cc1ccccc1)S(=O)(=O)c1ccc(NC(=S)NC(=O)C2CCCC2)cc1 | -17%
C[C@@H]1CCC[C@H](C)N1NC(=O)c1ccc(Cl)c(S(N)(=O)=O)c1 | -6%&-6%
CCOC(=O)CSc1nnc(NC(=O)c2cccc(S(=O)(=O)N3CCCCCC3)c2)s1 | ?
COc1ccc(CCNC(=O)c2ccc(CNc3c(N4CCOCC4)c(=O)c3=O)cc2)cc1OC | -19%
O=C(NCc1ccc2c(c1)OCO2)c1ccc(Cl)c(S(=O)(=O)N2CCOCC2)c1 | -8%
O=C(COc1ccc2ccccc2c1Br)N1CCOCC1 | -24%
Cc1ccc(CC(=O)NCCS(=O)c2ccc(Cl)cc2)cc1 (configuration not stated) | -6%
CCc1[nH]c(C)c(C(C)=O)c1C | -3%
CC(C)C(O)P(=O)(OCc1ccccc1)c1ccc(N(C)C)cc1 (configuration not stated) | -18%
COc1ccc(CCn2nnnc2C(c2ccc(Cl)cc2)N2CCN(C)CC2)cc1OC (configuration not stated) | -3%
CC[C@](C)(CN(C)C)OC(=O)c1ccccc1 | -1%
Cc1cccc(OCC(=O)N2CCN(C(=O)Cc3ccccc3)CC2)c1 | -7%
O=c1oc2ccccc2cc1-c1cn2cccnc2n1 | ?
CC1CCCCN1C(=O)C12CCC(C)(C(=O)C1)C2(C)C (configuration not stated) | -8%
CC(=O)c1c(N)c(C#N)c(C)n1-c1ccc(Br)cc1 | -3%
O=C(c1ccc(F)cc1)N1CCC(N2CCCCCC2)CC1 | -6%
O=C(CSc1nc2ncc(Br)cc2[nH]1)c1ccc([N+](=O)[O-])cc1 | 8.9µM*
CCOC(=O)N1CCN(S(=O)(=O)c2cccc3nonc23)CC1 | 1%
CC(=O)Nc1ccc(-c2cn3cccnc3n2)cc1 | ?
CCN(CC)CCCNC(=O)c1cc(-c2ccc(Cl)cc2)on1 | -3%
Cn1cccc1CNC1CCCCC1 | -2%
COC(=O)c1sccc1OC(C)C(C)=O (configuration not stated) | -1%
Cc1nc2ncnn2c(C)c1CCC(=O)N1CCc2ccccc2C1 | -6%
COC(=O)NNC(=O)c1ccc(C(C)(C)C)cc1 | -21%
Nc1nc2nc(-c3ccccc3)cc(=O)n2[nH]1 | ?
O=C(NCc1ccco1)c1sc2ccccc2c1Cl | 16µM*
COC(=O)C1=C(C)NC(C)=C(C(=O)OC)C1c1ccc(OC(=O)c2ccco2)cc1 | ?
Cc1ccc(C(=O)C(NC(=O)c2ccco2)N2CCOCC2)cc1 (configuration not stated) | -17%
COc1ccc(CCNC(=O)CSc2nncn2N)cc1OC | -12%
CC(C)(C)C1CCc2c(sc(NC(=O)C3CCCO3)c2C(N)=O)C1 (configuration not stated) | -9%
CCN(CC)CC#CCC(C)(c1ccccc1)c1ccccc1 | -11%
COCCn1nnnc1CN1CCC(NC(=O)Nc2cccc(OC)c2)CC1 | -1%
CC1(C)Cc2ccccc2C(NNC(=O)c2cccnc2)=N1 | -6%
O=C(NC(CO)c1ccccc1)c1ccco1 (configuration not stated) | -9%
CSCC[C@H](NC(=O)OC(C)(C)C)c1nnc(SCC=C(C)C)o1 | -5%
Cc1ccc2c(Cl)cc(Cl)c(OCC(=O)NCc3ccco3)c2n1 | -23%
Cc1ccc(NC(=O)C(OC(=O)c2ccc(C=O)cc2)c2ccccc2)cc1Cl (configuration not stated) | -20%
COc1cc(/C=C2/NC(=O)N(Cc3ccccc3F)C2=O)ccc1Oc1ccc([N+](=O)[O-])cn1 | -8%
CC(C)COc1ccc(C(=O)OC2CC(C)(C)OCC2CN(C)C)cc1 (configuration not stated) | 2%
COc1ccc(C(C)NC(=O)c2ccoc2C)cc1OC (configuration not stated) | -6%
O=c1c2c3c(sc2nc2n1CCCS2)CCCC3 | ?
CCCc1nn(-c2cc(Cl)ccc2OC)c2c1C(=O)CCC2 | -3%
CC1C(C)C(O)(c2ccccc2)CCN1C (configuration not stated) | -4%
CC(C)(C)c1ccccc1OCCCCN1CCCC1 | -1%

The results go on:
Molecule | HPGD inh
O=C(Nc1cccc2c1CCCC2)c1ccc(Br)o1 | -6%
CCOC(=O)CSC1=C(C#N)C(c2sccc2C)CC(=O)N1 (configuration not stated) | -3%
COc1ccccc1NC(=O)CSc1nc(N)cc(N)n1 | -5%
COC(=O)Cn1c(=NC(=O)c2ccc([N+](=O)[O-])s2)sc2cc(Br)ccc21 | -14%
Cc1nc2ncnn2c(C)c1CCC(=O)NC(C)c1ccc2c(c1)OCCO2 (configuration not stated) | -6%
O=C(N/N=C\c1cn(-c2ccccc2)nc1-c1ccccc1)c1ccc(Br)o1 | ?
COc1cccc(-n2cc3c(c2-c2ccccc2)c(=O)n(C)c(=O)n3C)c1 | -27%
O=C(c1ccco1)N1CCN(CC(=O)N2c3ccccc3CCc3ccccc32)CC1 | -6%
C=CCNCCCOc1ccc(Cl)cc1Br | -4%
N#CC(=C(/N)Sc1ccccc1N)/C(C#N)=C(/N)Sc1ccccc1N | 28µM*
Brc1cc(Oc2cc(Br)c(Br)c(Br)c2Br)c(Br)c(Br)c1Br | -11%
Cc1ccc2ccccc2c1CSc1nc(N)nc2c1ncn2CC(C)C | -22%
O=C(O)Cn1c(SCc2cccc3ccccc23)nc2ccccc21 | 25µM*
CC1(C)SC2C(NC(=O)Cc3ccccc3)C(=O)N2C1C(=O)O (configuration not stated) | -7%
C=CCSc1nnc(NC(=O)c2cccc(S(=O)(=O)N3CCOCC3)c2)s1 | 3.5µM*
CC(=O)c1c(C)[nH]c(C)c1C(C)=O | -11%
O=C1CN(C(=O)c2ccco2)c2ccccc2N1 | -16%
CNc1nc2ccccc2n1/N=C/c1cccc(OC)c1OC | -15%
Cc1ccccc1OCc1nnc2c3cnn(C)c3ncn12 | -14%
CCOC(=O)C1(C(F)(F)F)N=C(c2cccnc2)OC(N2CCCCC2)=N1 (configuration not stated) | 1%
COc1ccccc1/C=C\C(=O)OC[C@@H]1CCCN2CCCC[C@H]12 | -23%
Cc1ccc(CNS(=O)(=O)c2ccc3oc(C(=O)O)c(C)c3c2)cc1 | -14%
O=C(c1ccc(Nc2cccc(C(F)(F)F)c2)nc1)N1CCCC1 | ?
CC(C)CC(=O)NCC(C)NC(=O)CC(C)C (configuration not stated) | -11%
CCOC(=O)NC(=O)c1cn(C(CC)CO)c(=O)[nH]c1=O (configuration not stated) | -11%
COc1ccccc1NC(=S)Nc1ccccc1F | ?
O=C(N=c1ccn(-c2nc3ccccc3nc2NS(=O)(=O)c2ccccc2)cc1)c1cccs1 | -2%
Cc1ccc(C(=O)O/N=C2\CCSc3ccc(C)cc32)cc1 | -13%
CCOc1ccc(N2C(=O)C3CC(C)=C(C)CC3C2=O)c([N+](=O)[O-])c1 (configuration not stated) | -6%
CCCCCC(=O)Nc1ccc(N2CCN(S(C)(=O)=O)CC2)cc1 | -4%

Exported with values ahead of the structure: entries from further up.
| HPGD inh | structure |
| --- | --- |
| -2% | O=C(N=c1ccn(-c2nc3ccccc3nc2NS(=O)(=O)c2ccccc2)cc1)c1cccs1 |
| -14% | Cc1ccc(CNS(=O)(=O)c2ccc3oc(C(=O)O)c(C)c3c2)cc1 |
| ? | COc1ccccc1NC(=S)Nc1ccccc1F |
| -13% | Cc1ccc(C(=O)O/N=C2\CCSc3ccc(C)cc32)cc1 |
| -11% | CCOC(=O)NC(=O)c1cn(C(CC)CO)c(=O)[nH]c1=O (configuration not stated) |
| ? | O=C(c1ccc(Nc2cccc(C(F)(F)F)c2)nc1)N1CCCC1 |
| -4% | CCCCCC(=O)Nc1ccc(N2CCN(S(C)(=O)=O)CC2)cc1 |

Later entries.
Molecule | HPGD inh
COc1cc(/C=C/C(=O)c2ccc(C)c([N+](=O)[O-])c2)cc(OC)c1O | -8%
Cc1cc2oc(=O)cc(COC(=O)c3n[nH]c4ccccc34)c2cc1C | ?
C/C(=C(/CCO)SSC[C@@H]1CCCO1)N(C=O)Cc1cnc(C)nc1N | 0%
COc1cc(/C=C/C(=O)Nc2cc(C(F)(F)F)ccc2Cl)cc(OC)c1OC | ?
CCCCS(=O)(=O)N1CCc2nc(COc3ccccc3)c3c(c2C1)CO[C@@H](C)C3 | -5%
CN(C)c1cc[n+](CC(=O)Nc2cc(C(F)(F)F)ccc2Cl)cc1 | -2%
CCc1nnc(NC(=O)CCC(=O)NC2CCCCC2)s1 | -11%
COC(=O)C1=C(C(=O)OC)[C@@H]2Nc3ccccc3[C@@]23C[C@@H](C(=O)OC)N(S(=O)(=O)c2ccc(OC)cc2)C3=N1 | -5%
CCCOC(=O)NC1C(NC(=O)OCCC)N(C)C(=O)N1C (configuration not stated) | -10%
COc1ccc(-n2cnnc2SCC(=O)N2CCN(c3ccccc3)CC2)cc1 | -3%
CCOc1ccccc1NC(=O)c1cc(C(=O)c2cc(OC)ccc2O)coc1=N | -7%
COc1ccc2c(c1)c(C(=O)CNc1nc(C)cs1)c(C)n2C | -20%
O=c1cc(-c2cc(O)c(O)c(O)c2)oc2cc(O)cc(O)c12 | ?
CC(C)c1ccc(CN(C(=O)c2cc3ccccc3oc2=O)C2CCS(=O)(=O)C2)cc1 (configuration not stated) | -11%
CCC(C(=O)N1CCN(S(C)(=O)=O)CC1)c1ccccc1 (configuration not stated) | -2%
COC(=O)/C(N=Nc1cccc(C(F)(F)F)c1)=C(\C)O | -15%
COc1ccccc1/C=C/C1=NC(=C\C=C/c2ccccc2)/C(=O)O1 | -12%
CCn1c(C(=O)NC(C)c2ccc3c(c2)OCCO3)cc2sccc21 (configuration not stated) | -28%
Cc1noc(C)c1CSc1ccc2ccccc2n1 | -22%
O=C(c1ccc(-n2c(=O)c(=O)[nH]c3ccccc32)cc1)N1CCCN(Cc2ccccc2)CC1 | -7%
Cc1cc(NCCCn2ccnc2)n2ncc(-c3ccccc3)c2n1 | -26%
O=c1cc(-c2c(F)c(F)c(F)c(F)c2F)oc2ccccc12 | -21%
Cc1cc(=O)oc(C)c1C(=O)O | -13%
Cc1c(Cl)cccc1NC(=S)NCCc1ccc(S(N)(=O)=O)cc1 | 3%
COc1ccc(CNc2oc(-c3cccc4ccccc34)nc2C#N)cc1 | ?
CCOC(=O)C1CCN(C(=O)CCCOc2ccccc2)CC1 | -15%
Clc1ccccc1CSc1ncccn1 | -22%
O=C(Nc1ccc(-c2nc3ccccc3[nH]2)cc1)c1cccc(N2C(=O)CCC2=O)c1 | ?
CCCC(=O)Nc1ccccc1-c1nnc(SC)[nH]c1=O | -3%
Cn1c(C(=O)N2CCN(c3ccc(Cl)cc3)CC2)cc2c(=O)[nH]c3ccccc3c21 | -9%
COc1cc(C2NC(=O)NC(c3ccccc3)=C2C(C)=O)ccc1OCC#N (configuration not stated) | -14%
O=C(/C=C/Nc1cccc(C(F)(F)F)c1)c1ccc(Oc2ncccn2)cc1 | ?
O=C(NCCc1nc2ccccc2[nH]1)/C(=C/c1ccco1)NC(=O)c1ccco1 | -14%
O=C(CCSc1nc(-c2ccco2)cc(C(F)(F)F)n1)NCC1CCCO1 (configuration not stated) | ?
C=CCNC(=O)C(C#N)c1nc2ccccc2nc1N1CCN(Cc2ccccc2)CC1 (configuration not stated) | -15%
CCOc1cc(/C=N/NC(=O)c2cccnc2)ccc1OCC(=O)N1CCOCC1 | -6%
CCS(=O)(=O)Nc1ccc(C2=NN(C(=O)c3ccco3)C(c3ccc(C)cc3)C2)cc1 (configuration not stated) | ?
COCC(=O)Nc1ccccc1C(=O)Nc1ccc(OC)cc1 | -8%
CCN(CC)S(=O)(=O)c1cc(C(=O)Nc2ccccc2[N+](=O)[O-])ccc1Cl | -7%
CCN(CC(=O)NC(C)C)C(=O)c1ccc(Cl)cc1 | -2%
CCOc1ccc(Nc2nc3c(c(=O)[nH]2)CCCC3)cc1 | -12%
CC(C)c1ccc(/C=c2\sc3nc(-c4ccncc4)nn3c2=O)cc1 | -14%
O=C(CCCSc1nc(-c2ccco2)cc(C(F)(F)F)n1)Nc1ccc2c(c1)OCO2 | 20µM*
CCOC(=O)N1CCC(NC(=O)Cn2nc(-c3ccccc3)ccc2=O)CC1 | 1%
Cc1cc2oc(=O)cc(CN3CCN(S(=O)(=O)c4cccs4)CC3)c2cc1C | ?
CN(Cc1ccccc1)c1oc(COc2ccccc2F)nc1C#N | -22%
Cc1nn(Cc2ccccc2)c(Cl)c1C(=O)NCCc1ccccc1 | -25%
COc1ccc(NC(=O)C(CC(C)C)NS(=O)(=O)c2ccc3c(c2)CCN3C(C)=O)cc1OC (configuration not stated) | 1%
Cc1nn2c(Nc3ccc(F)cc3)c3c(nc2c1-c1ccccc1)CCC3 | ?
Cc1ccccc1OCC1CO1 (configuration not stated) | -10%
COc1ccc(/C=N/OCC(=O)N(Cc2ccc(OC)cc2)c2ccccc2C(=O)O)cc1 | -7%
